# HPGD block = inhibitors of human 15-hydroxyprostaglandin dehydrogenase (HPGD); P15428; purified HPGD, NADH fluorescence kinetic, PGE2 substrate; Potency, µM, without a hit: at the highest dose activity change, negative = inhibition, most hits filed as inhibitors; 150,000 compounds, 4.3% hits; AID 894; active = well fitted inhibition curve with a large enough effect (not every such curve was filed as active); inconclusive = small, poorly fitted or top-dose-only effect, or another doubt; inactive = no such curve, though single readings can be large or run the other way;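 further: top concentration of the series not given in the record; plate controls included wells without enzyme; inactives centre near -10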
# Target sequence (P15428 whole entry, looked up): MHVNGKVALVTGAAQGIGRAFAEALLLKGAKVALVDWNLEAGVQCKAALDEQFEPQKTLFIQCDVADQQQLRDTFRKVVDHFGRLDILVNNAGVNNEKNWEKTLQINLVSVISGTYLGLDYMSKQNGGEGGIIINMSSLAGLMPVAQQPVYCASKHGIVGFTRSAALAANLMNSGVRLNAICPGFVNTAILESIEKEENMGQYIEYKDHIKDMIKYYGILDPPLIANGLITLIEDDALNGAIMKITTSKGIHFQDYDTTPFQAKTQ
#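 NADH formation kinetics: reaction with 30 uM PGE2 and 1 mM NAD+ (final), 20 nM enzyme, Tris-HCl pH 8 with Tween 20, after 15 min compound preincubation at room temperature. Fluorescence change, last versus first of five reads.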
# * marks the source's active call; other numbers are inactive results; ? = inconclusive; & = joins results of further samples. On the % scale 0 is the no-effect control and ±100 the full control effect; potency means the concentration at half of the fitted maximal effect.
SMILES,HPGD block
CCN1CCN(C(=O)C2CCN(Cc3nc(-c4cccc(Cl)c4)oc3C)CC2)CC1,-15.5%
Cc1ccccc1C(=O)Nc1cccc(NC(=S)NC(=O)c2cccs2)c1,-8.2%
COC(=O)c1ccccc1NC(=O)C1CCCN(S(=O)(=O)c2ccccc2)C1 (stereo not drawn),-9.6%
Oc1c(Br)cc(C2N=C(c3ccccc3)NO2)cc1Br (stereo not drawn),-21.5%
Cc1ccc2c(c1)-c1c(ssc1=S)C(C)(C)N2C(=O)c1ccco1,8.91µM*
CCOC(=O)/C(N=Nc1sc(C(=O)OC)c(C)c1C(=O)OCC)=C(\O)CCl,-17.2%
COc1ccccc1N1CCN(C(=O)N2CCOCC2)CC1,-6.7%
CC(=O)Nc1ccc(S(=O)(=O)N2CCN(C(C)CCc3ccccc3)CC2)cc1 (stereo not drawn),2.5%
COC(=O)N1CCC2(CCCN(Cc3ccccc3OC)C2)CC1,3.2%
CCOc1ccccc1/C=c1\sc2ncnn2c1=O,-10.1%
O=C(C1CCC1)N1CCc2cc(S(=O)(=O)NCCN3CCN(c4ccccc4F)CC3)ccc21,-0.8%
Cc1cc(C(F)F)n2nc(C(=O)Nc3ccccc3Br)nc2n1,-28.8%
Nc1c(O)cccc1C(=O)C[C@@H](N)C(=O)O,-6.5%
Cc1ccc(NC(=O)CSc2nc(-c3ccco3)cc(C(F)(F)F)n2)cc1C,-14.4%
CC(CNC(=O)C1CCCCC1C(=O)O)c1ccccc1 (stereo not drawn),-11.9%
O=C(CSc1nnc(NC2CCCCC2)s1)Nc1ccc(N2CCOCC2)cc1,-10.8%
Nc1ccc(Cl)cc1Cl,-2.7%
Cc1cccc(Nc2ncc3c(n2)CC(C)CC3=O)c1 (stereo not drawn),-18.2%
COc1ccc(-c2nc(C)sc2C)cc1,28.2µM*
COC(=O)CSc1ncccc1-c1nc2ccccc2[nH]1,?
Cn1c(=O)c2c(ncn2CC(=O)OCC(=O)NCc2ccccc2Cl)n(C)c1=O,-16.5%
CCn1c(SCC(=O)Nc2ccc(S(N)(=O)=O)cc2)nnc1-c1cccc(OC)c1,-14.6%
Cc1nc2ncnn2c(N2CCN(C(=O)c3cccc(F)c3)CC2)c1Cc1ccccc1,-4.8%
O=C(Nc1ccc(Cl)c(Cl)c1)Nc1nc(-c2ccccc2)cs1,-4.1%

# 4 records drawn at random from those above, as already listed:
SMILES,HPGD block
COc1ccccc1N1CCN(C(=O)N2CCOCC2)CC1,-6.7%
CC(=O)Nc1ccc(S(=O)(=O)N2CCN(C(C)CCc3ccccc3)CC2)cc1 (stereo not drawn),2.5%
CC(CNC(=O)C1CCCCC1C(=O)O)c1ccccc1 (stereo not drawn),-11.9%
Cc1ccccc1C(=O)Nc1cccc(NC(=S)NC(=O)c2cccs2)c1,-8.2%

# (listing goes on)
SMILES,HPGD block
O=c1[nH]ncc(NCCCO)c1Cl,-0.1%
O=C(CCn1nnc2ccccc21)Nc1nnc(COc2ccccc2F)s1,-18.1%
c1ccc2c(c1)nc1n2CCN1,-1.9%
CCOc1ccc(S(=O)(=O)Nc2cc(OC)c(OC)cc2C(=O)O)cc1,-19.9%
Cc1cc(-c2c(C)[nH]n(-c3ccc(Cl)cc3)c2=O)n(-c2ccccc2)n1,-4.8%
COc1ccc(CCNC(=O)c2ccc(N3CCCC3=O)cc2)cc1,-10.8%
CCOC(=O)N1CCN(C(=O)c2cn(CC)c3cc(N4CCN(C)CC4)c(F)cc3c2=O)CC1,-19.6%
COc1cccc(-c2cc(C(=O)NCC3CCCO3)c3ccccc3n2)c1 (stereo not drawn),-25.2%
COC(=O)c1ccc(NC(=O)c2ccc(F)cc2)o1,-4.0%
CCOc1ccc2[nH]c(=O)c(CN(Cc3ccc(F)cc3)C(=O)c3ccco3)cc2c1,?
Clc1ccc(Oc2nc(Oc3ccc(Cl)cc3)nc(N3CCOCC3)n2)cc1,-6.9%
COc1ccc(C2NC3=C(CCCC3)C(C#N)(C#N)C2(C#N)C#N)cc1 (stereo not drawn),?

# Ordered by formula weight (highest first): part of the list above.
SMILES,HPGD block
COc1ccc(C2NC3=C(CCCC3)C(C#N)(C#N)C2(C#N)C#N)cc1 (stereo not drawn),?
COC(=O)c1ccc(NC(=O)c2ccc(F)cc2)o1,-4.0%
c1ccc2c(c1)nc1n2CCN1,-1.9%

# Next section
SMILES,HPGD block
CCOC(=O)c1c(CSc2ccccc2)n(C)c2cc(Br)c(OCC(O)CNC(CO)(CO)CO)cc12 (stereo not drawn),-19.6%
CC/C(=N/Nc1ccccc1)c1cnnc(-c2ccccc2)n1,-19.0%
Cc1cc([C@](C)(N)C(=O)O)ccc1P(=O)(O)O,-5.1%
COc1cccc(/C=C/C(=O)Oc2ccc(C(=O)c3ccc(F)cc3)cc2)c1,-17.6%
O=C(NCCOc1ccccc1)C1CCCN1C(=O)c1cccs1 (stereo not drawn),-0.7%
Cn1c(=O)oc2cc(S(=O)(=O)Nc3cccc(F)c3)ccc21,-4.8%
CC(C)OC(=O)Cn1c(=O)oc2ccccc21,-5.1%
Cc1nn(C)cc1C(C(=O)NC1CCCCC1)N(C(=O)Cc1cccs1)c1ccc(Cl)cc1 (stereo not drawn),-3.3%
COc1ccc2c(=O)c(CC(=O)O)coc2c1,-11.8%
CN1C(=S)SC(C)(C)C1(C)NO (stereo not drawn),-7.8%
Cc1csc(/N=C/c2ccc([N+](=O)[O-])cc2)n1,1.3%
CCn1c(SCC(=O)N/N=C/C=C/c2ccccc2[N+](=O)[O-])nnc1-c1ccccc1,-17.8%

# Exported with values ahead of the structure: entries from further up.
HPGD block | SMILES
-5.1% | CC(C)OC(=O)Cn1c(=O)oc2ccccc21
-4.8% | Cc1nc2ncnn2c(N2CCN(C(=O)c3cccc(F)c3)CC2)c1Cc1ccccc1
3.2% | COC(=O)N1CCC2(CCCN(Cc3ccccc3OC)C2)CC1
-17.8% | CCn1c(SCC(=O)N/N=C/C=C/c2ccccc2[N+](=O)[O-])nnc1-c1ccccc1
-14.4% | Cc1ccc(NC(=O)CSc2nc(-c3ccco3)cc(C(F)(F)F)n2)cc1C

# Following part.
SMILES,HPGD block
O=C(COc1ccccc1-c1ccccc1)c1ccccc1,-11.7%
O=C1c2ccccc2C(=O)c2c(NC(=O)c3ccc4c5c(ncnc35)-c3ccccc3C4=O)cccc21,-2.1%
N#CCSc1nnc(Cc2ccc3c(c2)OCO3)o1,-13.8%
CC(CCC(=O)O)(c1ccc(O)cc1)c1ccc(O)cc1,-6.6%&-6.9%
COc1ccc(-c2oc3ncn4nc(COc5ccccc5)nc4c3c2-c2ccc(OC)cc2)cc1,?
Cc1nc(SCC(=O)NCCc2ccccc2)nc(C)c1C,-10.9%
CCOC(=O)/C(C#N)=C1\C=CN(C)C(C)=N1,-15.6%
N#CCCn1cc(C(=O)Nc2ccccc2Br)c(-c2cccs2)n1,2.1%
CC(=O)c1cccc(NC(=O)c2cccc(S(=O)(=O)N(C)C)c2)c1,-3.4%
CC(C)c1ccc(S(=O)(=O)Nc2ccc(SC(F)F)cc2)cc1,-17.6%
O=C(Nc1ccccc1-c1nnc(SCc2ccc(Cl)cc2)o1)c1ccccc1,?
CC1CC(C)CN(C(=O)CCCn2c(=S)[nH]c3ccccc3c2=O)C1 (stereo not drawn),25.1µM*
CC(C)=CCC/C(C)=C/C=N/NC(=O)c1cccc([N+](=O)[O-])c1,0.0%
CCOc1ccc(Br)cc1S(=O)(=O)Nc1ccc(C(=O)OCC(=O)N(C)c2ccccc2)cc1,-8.5%
Cc1cccc(C(=O)N2CC3(C)CC2CC(C)(C)C3)c1 (stereo not drawn),-2.8%
Cc1ccc(NC(=O)N2CCC(O)(c3cccnc3)CC2)cc1,0.3%
O=C(NCc1ccccc1)[C@@H]1CSC2c3ccccc3C(=O)N21 (stereo partly drawn),-21.4%
CCN(CC)c1ccc(NC(=O)/C=C\c2ccccc2Cl)cc1,-10.6%
COc1ccc(C2CC3(CC(C)(C)NC(=O)N3)Oc3cc(O)ccc32)cc1 (stereo not drawn),-9.5%
Cc1ccc(S(=O)(=O)c2c(N)n(Cc3ccco3)c3nc4ccccc4nc23)cc1,?
COc1cc(/C=C/C(=O)c2ccc(O)cc2)ccc1OCC#N,-19.8%
Cc1cc(C)n2nc(C(=O)OCCOc3ccc(F)cc3)nc2n1,-12.4%
CCCn1cc(S(=O)(=O)CC(=O)NC2CCCCC2)c2ccccc21,-6.0%
Cc1ccc(NC2SC(=O)N(Cc3cccc(C(=O)O)c3)C2=O)cc1 (stereo not drawn),-5.1%
CC(C)C[C@@H](CC(=O)N[C@@H](CCC(=O)O)CC(=O)O)NC(=O)[C@@H]1CNCC[C@H]1NC(=O)C[C@H](CCCN)NC(=O)C[C@H](Cc1ccccc1)NC(=O)[C@@H]1CNCC[C@H]1N,-11.3%
CCOc1cc(C(=O)Nc2ncccn2)cc(OCC)c1OCC,-18.6%
CCOc1cc(OCC)nc(S(C)(=O)=O)n1,-3.3%
CC1CN(Cc2nc3c(c(=O)n(C)c(=O)n3C)n2Cc2cccc(Cl)c2)CC(C)O1 (stereo not drawn),-0.6%
O=C(CSc1nnc(-c2ccc(OC(F)F)cc2)o1)NCc1cccs1,-20.5%
CCCC1C2C(=O)N(c3ccccc3)C(=O)C2ON1c1ccccc1 (stereo not drawn),-11.0%
COC(=O)c1ccc(NC(=O)CSc2nnc(COc3ccc4c(c3)CCCC4)o2)cc1,-2.7%
CCOC(=O)Nc1ccc2c(CN3C(=O)NC(CC)(CC)C3=O)cc(=O)oc2c1,?
Cc1cc(NC(=O)c2c([N+](=O)[O-])cnn2C)no1,-8.8%
COc1ccc(OCCOCCOc2ccc(C)cc2[N+](=O)[O-])cc1,?
O=C(Oc1cccc(N2C(=O)C3C4c5ccccc5C(c5ccccc54)C3C2=O)c1)c1ccco1 (stereo not drawn),-10.6%
O=C(Nc1ccccn1)C12CC3CC(CC(C3)C1)C2,2.6%
Cc1ccc(-c2nnc(SCC(=O)n3c4c(c5ccccc53)CCCC4)o2)cc1,-7.1%
CCSc1nnc(NC(=O)C2CCCN(S(=O)(=O)c3cnc[nH]3)C2)s1 (stereo not drawn),-15.9%
CCNC(=S)NNC(=S)NCc1ccccc1,28.2µM*
O=C(CCCN1C(=O)c2ccccc2C1=O)Nc1c2c(nc3c1CCC3)CCC2,-13.4%
OC1CCN(C(c2ccc3ncccc3c2)c2nnnn2C2CCCCC2)CC1 (stereo not drawn),-1.4%
Cc1ccccc1OCCN1C(=O)NC2(CCCc3ccccc32)C1=O (stereo not drawn),-26.9%
O=C(/C=C/c1cccc([N+](=O)[O-])c1)NCCSCc1cccc(Cl)c1,?
CCN1CCN(C(=O)Cn2ncc3ccsc3c2=O)CC1,-9.5%
O=[N+]([O-])c1cc(/C=N/O)ccc1SCc1ccccc1,?
COc1ccccc1NC(=S)NCCc1ccccc1,-15.8%
CCOC(=O)c1ccc(NC(=O)Nc2c(C)nn(C)c2C)cc1,-7.3%
COc1ccc([C@H]2[C@H](C(C)=O)N3N=Cc4ccccc4C3C23C(=O)OC(C)(C)OC3=O)cc1 (stereo partly drawn),?
CCC(C(=O)Nc1ccccc1C(=O)N1CCCC1)N1C(=O)c2ccccc2C1=O (stereo not drawn),-9.2%
Cc1ccc2nc(Nc3nc(CSc4nnnn4-c4ccccc4)cc(=O)[nH]3)nc(C)c2c1,-11.8%
CCN(CC)C(=O)COc1ccc2oc(C)c(C(=O)OC(C)C)c2c1,-11.7%
CC(=O)c1nn(-c2cccc(Br)c2)cc1C(=O)c1cccc2ccccc12,-27.1%
COc1ccc(NC(=O)COc2nc(N(C)C)nc(N(C)C)n2)cc1,-15.5%
COCCSc1ccccc1C(=O)NCC1CCCO1 (stereo not drawn),-10.2%
CN(C)C=NC(=O)/C(C#N)=C1\CCc2ccccc2N1,-11.9%
COc1ccc(/C(O)=C2\C(=O)C(=O)N(c3cc(C)on3)C2c2cccc(OC)c2OC)cc1C (stereo not drawn),-8.0%
COc1ccc2nc(-n3c(C)ccc3C)sc2c1,-6.2%
CC1CCCCN1C(=O)COC(=O)c1n[nH]c2ccccc12 (stereo not drawn),-26.1%
Cc1ccc(CNC(=O)C2CCCN(c3nc4ccccc4o3)C2)cc1 (stereo not drawn),-1.2%
O=C(CCCOc1ccc(Cl)cc1Cl)Nc1cccnc1,-19.2%

# (next part)
SMILES,HPGD block
CNCCOc1ccccc1-c1ccccc1,2.8%
Cn1c(=O)[nH]c(=O)c2c1nc(Sc1ccccc1)n2CCc1ccccc1,-7.6%
CCN(CC)S(=O)(=O)c1ccc(C(=O)Nc2nnc(C(C)C)s2)cc1,-15.8%
Cc1ccc(OCC(=O)N2CCN(C(=O)CCC3CCCC3)CC2)cc1,2.6%
CC(=O)NS(=O)(=O)c1ccc(N=c2ssc3c2-c2cc(C)ccc2NC3(C)C)cc1,-2.5%
O=C(O)Cn1cnc2scc(-c3cccs3)c2c1=O,-21.7%
Cc1ccccc1-c1nc(-c2ccc(NC(=O)c3ccc4c(c3)OCO4)cc2)no1,?
O=C(OCc1nc2ccc(Cl)cc2n1CCO)c1ccc(O)cc1,-5.7%
COc1ccc(Cc2nnc(NC(=O)CSc3ccc(C)cc3)s2)cc1OC,-19.1%
O=C(CSc1nc(O)c(Cc2ccccc2)c(=O)n1-c1ccccc1)N1CCOCC1,-7.2%
O=C(COc1ccccc1)NCC(=O)N/N=C/c1cccs1,-18.2%
CC(=O)Oc1ccc(Oc2ccc(-c3noc(C)n3)cc2)cc1,-28.5%
Cc1c(/C=N/n2cnnc2)c2ccccc2n1CCOc1ccc(Cl)cc1,-8.8%
Cc1c(/C(Cc2ccccc2)=N/O)c2ccccc2n1C,-16.3%
Cc1ccc(/C(N)=N/OC(=O)c2ccc(F)cc2)cc1,-1.3%
CC(=O)N1CCC2(CC1)CN(c1cccc(-c3ccccc3)c1)C2,?
COc1ccc(N2CCN(CC(=O)Nc3ccc(-n4cnnn4)cc3)CC2)cc1,-9.9%
CCOc1ccc(NC(=O)N(C2CCCCC2)C(C)c2ccncc2)cc1 (stereo not drawn),-17.8%
COc1cc(C=C(c2nc3ccccc3s2)c2nc3ccccc3s2)ccc1O,-17.0%
CCNC(=O)N1CCOCC1,-4.4%

# The list is partial; the hit share may differ from the screen's.
